Screening data from PubChem BioAssay.
ClpP mod: qHTS Assay for Activators of ClpP; purified B. subtilis ClpP, FRET peptide cleavage, 20 min; actives 1.9% (n = 340,000); Potency, µM (top dose mostly 57.5 µM), without a hit: top-dose activity change, negative = active; ATP-dependent Clp protease proteolytic subunit (Bacillus subtilis (strain 168)), P80244; active = well fitted falling curve with a large enough effect; inconclusive = small, poorly fitted or top-dose-only effect; inactive = no such curve, though single readings can be large or run the other way; further: potency means the concentration at half of the fitted maximal effect; the source files actives as falling curves though it sought activators and does not explain the sign; nearly all actives have a fitted effect of over 65% in size; many hits overshoot -100%
Target sequence (P80244 whole entry, looked up): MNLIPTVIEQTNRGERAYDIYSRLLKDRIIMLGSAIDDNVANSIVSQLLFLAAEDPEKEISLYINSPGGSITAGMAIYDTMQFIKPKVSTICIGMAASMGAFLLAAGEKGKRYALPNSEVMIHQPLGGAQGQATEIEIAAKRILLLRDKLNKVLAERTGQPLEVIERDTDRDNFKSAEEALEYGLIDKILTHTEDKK
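FRET quenching reversal measured ClpP activation: 10 microg/mL B. subtilis ClpP at pH 8 with the FRET-FV decapeptide, read at 430 nm after 320 nm excitation. The 20-min minus 0-min signal was scaled between DMSO/no-enzyme wells and ADEP (5.8 microM final).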
TRPML1 ag: agonists of human TRPML1 channel; Q9GZU1; TRPML1-expressing cells, Ca2+ dye fluorescence, FDSS; host cell line not named in the record; reference of the full effect not given here; activation, % (test concentration not listed); actives 0.12% (n = 410,000); AID 624414; in the data active = activation above about 50%; inconclusive = about 30% to 50%; inactive = below about 30%; further: 0% is about no effect; the text of the record puts the active cut at 80%
Target sequence (Q9GZU1 whole entry, looked up): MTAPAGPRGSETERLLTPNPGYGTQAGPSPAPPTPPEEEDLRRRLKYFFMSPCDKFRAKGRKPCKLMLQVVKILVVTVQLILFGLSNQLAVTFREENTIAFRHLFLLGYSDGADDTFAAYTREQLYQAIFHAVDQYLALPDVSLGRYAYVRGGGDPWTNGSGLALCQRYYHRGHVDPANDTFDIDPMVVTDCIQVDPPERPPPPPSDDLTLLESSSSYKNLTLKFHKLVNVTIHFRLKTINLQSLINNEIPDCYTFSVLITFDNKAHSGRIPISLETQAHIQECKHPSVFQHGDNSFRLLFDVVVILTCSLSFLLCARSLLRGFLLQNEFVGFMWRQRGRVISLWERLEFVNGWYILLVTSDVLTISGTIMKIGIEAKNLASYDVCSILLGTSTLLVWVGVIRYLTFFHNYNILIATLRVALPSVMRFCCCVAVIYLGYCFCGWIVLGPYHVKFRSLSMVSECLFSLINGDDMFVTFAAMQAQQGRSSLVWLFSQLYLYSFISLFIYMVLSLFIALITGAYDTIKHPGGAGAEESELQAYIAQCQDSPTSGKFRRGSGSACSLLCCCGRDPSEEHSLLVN
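Tetracycline-induced TRPML1-DL cells are seeded and incubated overnight before loading with a no-wash Ca2+ dye and quencher. Agonist activity is taken from the 110 s fluorescence read following compound pin-transfer on an FDSS, before EC80 54-4 challenge.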
TRPML1 blocker: human mucolipin-1 channel inhibition. TRPML1-inducible cells, Ca2+ dye fluorescence, FDSS; hits give low values; inhibition of EC80 agonist-evoked calcium signal. activity change, negative = inhibition, % (no concentration beside the values). Q9GZU1. AID 624415. actives 0.02% (n = 390,000); in the data active means activity change below about -50%; inconclusive means about -30% to -50%; inactive means above about -30%;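 further: stimulus is agonist 54-4 at its EC80 concentration; on the % scale 0 is the no-effect control and ±100 the full control effect; compound concentration not given in the record; the text of the record puts the active cut at -80%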
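Calcium fluorescence in TRPML1-DL cells induced overnight with Tet: a 110 s read after compound pin addition, then a 110 s antagonist read after challenge with 54-4 at 4 uM final (EC80).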
gsp agonist: activates gsp, the McCune-Albright syndrome mutation | gsp mutant cells, cAMP HTRF, 30 min; control for the full effect not named in the record | AID 624287 | actives 0.13% (n = 340,000) | Potency, µM (series often up to 76.9 µM), without a hit: at the highest dose activation (cAMP increase), most hits filed as activators; active = well fitted activation curve with a large enough effect; inconclusive = small, poorly fitted or top-dose-only effect, or another doubt; inactive = no such curve, though single readings can be large or run the other way; cell line not stated here;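 further: phosphodiesterase inhibitor Ro 20-1724 added with compounds to block cAMP breakdown; potency means the concentration at half of the fitted maximal effect; nearly all actives have a fitted effect of over 60% in size; about a fifth of the inactives were tested at one dose only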
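Cells stably selected in G418 were plated at 2000/well, grown 16-24 hr, then given compounds in DMSO with the PDE inhibitor […] (300 uM solution added) for 30 min at 37C; cAMP was read by HTRF.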
gsp antag: antagonists of gsp mutant (McCune-Albright syndrome). Potency, µM (top dose mostly 76.9 µM), for inactives: at the top dose activity change, negative = inhibition, actives largely listed as inhibitors. actives 0.4% (n = 340,000). gsp-mutant cells, cAMP HTRF, 30 min; control for the full effect not named in the record. AID 624288; active = falling curve of any shape with a large fitted effect; inconclusive = falling curve, mostly with a smaller effect; inactive = flat or rising curve; cell line not stated here;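 further: intracellular cAMP measured with PDE inhibitor Ro 20-1724 present during compound exposure; potency means the concentration at half of the fitted maximal effect; on the % scale 0 is the no-effect control and ±100 the full control effect; nearly all actives have a fitted effect of over 65% in size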
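HTRF cAMP read-out (cAMP-d2 plus anti-cAMP antibody-K in lysis buffer, 30 min RT). Before lysis, cells are exposed to compounds with […] for 30 min at 37C in DPBS containing Ca/Mg, BSA and Tween 20.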
Menin-MLL FL inh: displaces fluorescein MLL peptide from human menin; Fluorescence polarization, fluorescein-MLL peptide displacement from menin; FP activity change, % at 61.4 µM; 290,000 tested, under 10 active; AID 1766; inconclusive = falling polarisation curve, or a change in total fluorescence; inactive = total fluorescence flat and polarisation flat or rising; no compound was filed as active; the % refers to the polarisation; negative = inhibition;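 further: % of control where 0% means no effect; inhibitors lower the polarisation; unlabelled MLL peptide was the positive control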
Numbers without * were called inactive; & = joins results of further samples; [ ] = remark or other dose.

Cc1ccnn1-c1ccc(C(=O)N2CCCN(S(=O)(=O)c3ccc(F)cc3)CC2)cc1 was read as ClpP mod -4.1%, TRPML1 ag -0.5, TRPML1 blocker 4, gsp agonist 24% and gsp antag -8%.
For N#CC1=C(S)N(c2ccccc2)C(c2ccc(-c3cccc(Cl)c3)o2)NC1=O (configuration not stated) the results were ClpP mod -1.0%, TRPML1 ag 0.7, TRPML1 blocker 11, gsp agonist 5%, gsp antag -21% and Menin-MLL FL inh 4.5.
For COc1ccc(CCNC(=O)c2cc3c(-c4ccccc4F)nn(C)c3s2)c(OC)c1 the results were ClpP mod 3.0%, TRPML1 ag -0.4 and TRPML1 blocker -10.
For CN1CCN(CCOCCOc2c(Cl)cc(Cl)cc2Cl)CC1 the results were ClpP mod 0.7%, TRPML1 ag -0.2, TRPML1 blocker 18, gsp agonist -4%[15.4 µM] and gsp antag 14%.
Cc1cc(S(=O)(=O)N2CCCOC2CNC(=O)C(=O)NCc2cccs2)ccc1F (configuration not stated) was read as ClpP mod -7.1%, TRPML1 ag 0.0, TRPML1 blocker 1, gsp agonist -34%[inhibitor] and gsp antag 17%.
For COc1cccc(-n2nnc3c(=O)n(CC(=O)Nc4ccc(C)cc4)cnc32)c1 the results were ClpP mod -2.1%, TRPML1 ag 0.1, TRPML1 blocker -12, gsp agonist 12%, gsp antag 9% and Menin-MLL FL inh -6.5.
Screening CCOc1ccccc1NS(=O)(=O)c1ccc2c(c1)oc(=O)n2C returned ClpP mod 1.9%, TRPML1 ag 0.0 and TRPML1 blocker 48.
For CCNc1c([N+](=O)[O-])ncn1C the results were ClpP mod -14%, TRPML1 ag -0.1, TRPML1 blocker 3, gsp agonist 1%, gsp antag 11% and Menin-MLL FL inh 1.7.
COc1ccccc1C(=O)COC(=O)CCN=C1NS(=O)(=O)c2ccccc21 was read as ClpP mod -4.6%, TRPML1 ag 0.8, TRPML1 blocker 17, gsp agonist -4%[15.4 µM] and gsp antag 1%.
For COc1ccc(NC(=O)CSc2nnc(C)n2Cc2ccccc2)cc1 the results were ClpP mod -1.5%, TRPML1 ag 2.3, TRPML1 blocker 2, gsp agonist 5%, gsp antag -8% and Menin-MLL FL inh 3.5.
`O=C(Nc1nc(-c2ccccc2)c(C(=O)c2ccccc2)s1)c1ccc(S(=O)(=O)N2CCCC2)cc1` gave ClpP mod 0.9%, TRPML1 ag 0.5, TRPML1 blocker 16, gsp agonist -3%, gsp antag 30% and Menin-MLL FL inh 1.3.
`COC(=O)[C@H](C(C)C)n1c(C)c(C(C)=O)c(C(C)=O)c1C` gave ClpP mod 1.3%, TRPML1 ag -0.8, TRPML1 blocker 7, gsp agonist 18%, gsp antag 1% and Menin-MLL FL inh 1.7.
CC1(C)NC(=O)N(CCOCCOc2ccccc2)C1=O was read as ClpP mod 4.3%, TRPML1 ag 0.7, TRPML1 blocker 2, gsp agonist 6%[15.4 µM], gsp antag -10% and Menin-MLL FL inh 0.6.
`O=C(O)/C(=C/c1ccco1)NC(=O)c1ccccc1` gave ClpP mod -9.1%, TRPML1 ag 0.6, TRPML1 blocker -18, gsp agonist 4%, gsp antag 10% and Menin-MLL FL inh 5.6.
C[C@@H]1CC=C[C@H]2[C@H]1C(=O)N(Cc1ccccc1)[C@H]2c1ccc(-c2ccc(F)cc2)cc1F was read as ClpP mod -6.8%, TRPML1 ag 1.4, TRPML1 blocker 78, gsp antag 7% and Menin-MLL FL inh -0.5.
NC(=O)C1CCN(C(=O)c2cccc(NC(=O)c3nsc4ccccc34)c2)CC1 was read as ClpP mod -1.3%, TRPML1 ag 0.8 and TRPML1 blocker -4.
For CC[C@H]1C(=O)[C@@H](Cc2ccccc2)[C@@H]2CCN3C(=O)CCC[C@H]1[C@H]23 the results were ClpP mod 0.5%&-2.8%, TRPML1 ag -0.9&-0.5, TRPML1 blocker 31 and gsp antag 8%.
`CCN1C(=O)[C@H]2[C@@H](c3ccc(C(F)(F)F)cc3)N[C@]3(CCCN(Cc4ccc(C(F)(F)F)cc4)C3=O)[C@H]2C1=O` gave ClpP mod 1.2%, TRPML1 ag 0.9, TRPML1 blocker 5 and gsp agonist -46%[inhibitor].
`Cn1cc(C(CC(=O)O)C(=O)O)c2ccccc21` (configuration not stated) gave ClpP mod inconclusive, TRPML1 ag 3.3, TRPML1 blocker 8, gsp agonist 3%, gsp antag 11% and Menin-MLL FL inh 2.3.
For C[C@@H]1CN([C@@H](C)CO)C(=O)c2cc(NC(=O)c3ccccc3)ccc2O[C@@H](C)CCCCO[C@@H]1CN(C)S(=O)(=O)c1ccc(F)cc1 the results were ClpP mod -12%, TRPML1 ag 0.7, TRPML1 blocker 22 and gsp agonist 6%.
Screening Cc1cc2[nH]c(=O)c(=O)[nH]c2cc1S(=O)(=O)Nc1cccc(C)c1C returned ClpP mod 4.4%, TRPML1 ag -0.3, TRPML1 blocker 0, gsp agonist -8%, gsp antag 3% and Menin-MLL FL inh -3.5.
Screening Nc1nnc(SCC(=O)OCC(=O)Nc2ccccc2)s1 returned ClpP mod 0.0%, TRPML1 ag 1.0, TRPML1 blocker -1, gsp agonist -6%, gsp antag -10% and Menin-MLL FL inh 0.6.
Screening O=C(Nc1ccc(F)cc1F)c1sccc1SCc1cccc(C(F)(F)F)c1 returned ClpP mod -7.2%, TRPML1 ag 1.2, TRPML1 blocker 47, gsp agonist -30%, gsp antag -14% and Menin-MLL FL inh 4.2.
For CCOC(=O)c1c(C)c(C(=O)NCc2ccco2)c(C)n1C the results were ClpP mod 0.8%, TRPML1 ag 0.4, TRPML1 blocker 18, gsp agonist -18%, gsp antag 17% and Menin-MLL FL inh 0.1.
`CSc1nc(-c2ccccc2)nc(C(C)C)n1` gave ClpP mod -3.2%, TRPML1 ag 0.3, TRPML1 blocker -22, gsp agonist 10% and gsp antag 1%.
CCOc1ccc(C(=O)O)cc1OC was read as ClpP mod -12%, TRPML1 ag 0.8, TRPML1 blocker 6, gsp agonist -72%[inhibitor], gsp antag 0% and Menin-MLL FL inh 1.9.
Screening Cn1c(SCC(=O)NCc2cccs2)nnc1-c1ccc(O)cc1 returned TRPML1 ag -0.3, TRPML1 blocker 20, gsp agonist -2%[15.4 µM], gsp antag 1% and Menin-MLL FL inh 0.6.
`O=C1CCCc2c1cc(C(=O)NC1CCSC1=O)c(=O)n2-c1ccccc1` (configuration not stated) gave ClpP mod 25µM*, TRPML1 ag -0.2, TRPML1 blocker 0, gsp agonist -1%, gsp antag -6% and Menin-MLL FL inh 7.3.
For COc1cc(CNc2ccc3[nH]c(=O)[nH]c3c2)ccc1OCc1cccc(C)c1 the results were ClpP mod 0.1%, TRPML1 ag -1.6, TRPML1 blocker 8, gsp agonist -3%[15.4 µM], gsp antag -6% and Menin-MLL FL inh -1.7.
`CCOC(=O)NN1C(=O)c2ccccc2NC1c1ccccc1F` (configuration not stated) gave ClpP mod 4.2%, TRPML1 ag 1.8, TRPML1 blocker -12, gsp agonist -27%, gsp antag 5% and Menin-MLL FL inh 0.8.
Screening CC(=O)Nc1ccc2nc3ccccc3nc2c1 returned ClpP mod -1.4%, TRPML1 ag 0.3, TRPML1 blocker -7, gsp agonist 24%, gsp antag -14% and Menin-MLL FL inh inconclusive.
Cc1cc[n+](CC(=O)c2ccc(NC(=O)c3ccccc3)cc2)c2ccccc12 was read as ClpP mod -5.2%, TRPML1 ag 3.1, TRPML1 blocker 7, gsp agonist inconclusive, gsp antag 0% and Menin-MLL FL inh 4.1.
Screening CCc1sc(C(=O)NCc2ccco2)cc1C returned TRPML1 ag 0.2, TRPML1 blocker -3, gsp agonist 10%[15.4 µM], gsp antag 5% and Menin-MLL FL inh 3.0.
For COC(=O)c1[nH]c2ccc(F)cc2c1NC(=O)CCN1CCN(Cc2ccc3c(c2)OCO3)CC1 the results were ClpP mod inconclusive, TRPML1 ag -0.9, TRPML1 blocker 5, gsp agonist -16%, gsp antag -3% and Menin-MLL FL inh -1.2.
Screening CN(Cc1cnn(-c2ccc(F)cc2)c1)C(=O)[C@H]1O[C@@H](n2cnc3c(N)ncnc32)[C@H](O)[C@@H]1O returned ClpP mod -6.0%, TRPML1 ag -0.3 and TRPML1 blocker -14.
For O=C(COc1ccccc1F)NC1CCN(Cc2ccccc2)CC1 the results were ClpP mod -0.4%, TRPML1 ag -0.6, TRPML1 blocker 5, gsp agonist 25%, gsp antag 2% and Menin-MLL FL inh -1.2.
`Cn1nnnc1SC(C(=O)Nc1cccc(C(F)(F)F)c1)c1ccccc1` (configuration not stated) gave ClpP mod -3.3%, TRPML1 ag -0.1, TRPML1 blocker -7, gsp agonist -9%, gsp antag -20% and Menin-MLL FL inh 1.1.
Screening COc1ccc(CNC(=O)c2csc3c2CCCC3)cc1 returned ClpP mod -1.9%, TRPML1 ag 2.9, TRPML1 blocker 15, gsp agonist 20% and gsp antag 5%.
Cc1ccc(F)c(NC(=O)c2cncn2-c2ccccc2)c1 was read as TRPML1 ag 0.2, TRPML1 blocker 6, gsp agonist -1%[15.4 µM], gsp antag -9% and Menin-MLL FL inh -2.4.
Screening O=C(NNS(=O)(=O)c1cccc(Cl)c1)c1cc(-c2ccc(F)cc2)nc2ccccc12 returned ClpP mod -2.5%, TRPML1 ag 1.7, TRPML1 blocker 25, gsp agonist 7%[15.4 µM], gsp antag -58% and Menin-MLL FL inh -1.5.
For CCOC(=O)c1cc2sc(C)cc2n1CC(=O)NCCc1ccccc1 the results were ClpP mod -7.6%, TRPML1 ag 0.6, TRPML1 blocker 18, gsp agonist 1%, gsp antag 16% and Menin-MLL FL inh 1.6.
CC(CCc1ccccc1)NC(=O)C1CC1 (configuration not stated) was read as ClpP mod 3.5%, TRPML1 ag 0.2, TRPML1 blocker 16, gsp agonist 8% and gsp antag 14%.
O=C1N(Cc2cccnc2)C[C@@H]2C[C@@H](c3ccccc3C#Cc3ccccc3)N3CCC[C@@]123 was read as TRPML1 ag -0.6, TRPML1 blocker 2, gsp agonist 28%, gsp antag -19% and Menin-MLL FL inh 4.0.
For Cc1ccc(C)c(-c2cc(C(=O)N/N=C/c3cccnc3)c3ccccc3n2)c1 the results were ClpP mod 0.1%, TRPML1 ag -0.3, TRPML1 blocker inconclusive, gsp agonist -16% and gsp antag 3%.
COc1ccccc1CCC(=O)Nc1ccc(OC)c(S(=O)(=O)N2CCCCC2)c1 was read as ClpP mod -2.0%, TRPML1 ag 0.5, TRPML1 blocker -9, gsp agonist 3% and gsp antag -4%.
